AF4-AF9 inh: MLL-AF4/AF9 protein interaction inhibition; AlphaScreen, biotin-AF4 peptide binding to FLAG-AF9; hit rate 0.47% among 350,000; P42568; inhibition, % at 10 µM;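 active = every replicate reaching a set inhibition limit, whatever the replicate mean, cut at about 25% in these data; inconclusive = mean inhibition reaches that limit but some replicates miss it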;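 note: 0% = plate neutral control median and 100% = total signal loss; the record names both 10 and 1 µM as test concentration; the first replicate is given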
UCH37 DUB inh: inhibitors of human deubiquitinating enzyme UCH37 | Q9Y5K5 | purified proteasome/UCH37, Ub-AMC cleavage fluorescence | inhibition, % (no concentration beside the values) | hit rate 0.33% among 330,000 | AID 588478;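 active = mean of two replicates above 20%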;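 note: 0% = compound-free wells with enzyme and 100% = wells lacking proteasome; stock transfer was 100 nL into about 20 µL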
Target sequence (Q9Y5K5 whole entry, looked up): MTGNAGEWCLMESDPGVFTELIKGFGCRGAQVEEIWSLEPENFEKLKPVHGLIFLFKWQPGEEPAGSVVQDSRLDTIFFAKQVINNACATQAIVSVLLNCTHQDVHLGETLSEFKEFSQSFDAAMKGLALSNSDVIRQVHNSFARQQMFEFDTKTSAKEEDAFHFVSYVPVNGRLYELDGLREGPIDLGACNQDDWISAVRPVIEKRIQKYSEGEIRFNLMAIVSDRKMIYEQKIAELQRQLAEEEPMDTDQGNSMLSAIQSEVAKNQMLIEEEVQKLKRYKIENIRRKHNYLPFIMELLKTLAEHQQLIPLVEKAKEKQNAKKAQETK
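Material: human UCH37 enzyme supplied as purified proteasome complex / Amount: 0.15 nM proteasome as dispensed / Buffer or medium: pH 7.4 Tris-HCl (50 mM) with ovalbumin, ATP-MgCl2, DTT / Times: preincubation 30 min, reaction 25 min, room temperature / Technique: AMC fluorescence from Ub-AMC cleavage, excitation 355 nm, emission 460 nm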
FGF22 binding: binders of recombinant human FGF22 by thermal shift. Q9HCT0. SYPRO orange fluorescence; percent of sucrose octasulfate shift, DMSO zero. calls only at 9.99 µM. hit rate 1.5% among 340,000. AID 651658;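 active = melting point raised past a set limit in the mean and every replicate; inconclusive = no clear call; three in four hits are not shown here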
Target sequence (Q9HCT0 whole entry, looked up): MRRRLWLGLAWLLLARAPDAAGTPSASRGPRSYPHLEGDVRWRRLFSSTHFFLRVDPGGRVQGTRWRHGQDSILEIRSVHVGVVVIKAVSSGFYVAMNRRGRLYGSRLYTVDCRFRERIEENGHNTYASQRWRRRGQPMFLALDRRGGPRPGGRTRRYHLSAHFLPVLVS
Vif TR-FRET: HIV-1 Vif–A3G interaction blockers – biochemical, TR-FRET, GST-Vif 1-94, biotin-A3G peptide, dose response retest, primary screen (AID 1117319); inhibition, %, or IC50 in µM where a hit was titrated; hit rate 0.57% among 260,000; TR-FRET GST-Vif / biotin-A3G peptide binding; higher % means a stronger effect; test concentration not given here; strong numbers were not always called active;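 active = above the screen mean plus three standard deviations and confirmed in dose response; inconclusive = results disagree or hit not tested in dose response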;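 note: Vif residues 1-94 fused to GST binding biotinylated APOBEC3G peptide 110-148; 0% = full assay without inhibitor and 100% = GST in place of GST-Vif; retest series ran down from 100 µM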
RanGTP-Imp inh: disruptors of Ran-importin-beta complex formation – biochemical, FRET, CFP-Ran, YFP-importin-beta, homogeneous, primary screen. cell-free CFP-Ran/YFP-importin-beta FRET ratio. inhibition, % (concentration not given with the values). hit rate 1.1% among 300,000. AID 2216;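 active = most replicates above 15%; inconclusive = exactly half above 15%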;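 note: 0% = DMSO wells and 100% = Ran loaded with GDP instead of GTP; wells of about 40 µL received 100 nL stock; the first replicate is given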
E coli growth: blocks Escherichia coli growth; OD600, 23 h; stronger effect = lower value; OD600 absorbance (test concentration not listed); hit rate 0.21% among 330,000; AID 1053175;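 active = OD600 absorbance below the run mean of sample wells minus 3.6 SD, in any replicate, cut at about 0.56 in these data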;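 note: stock transfer was 300 nL into about 60 µL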
HNF4A DNA FP: change in binding of human HNF4 alpha to DNA | activity change, % at 10 µM | hit rate 0.3% among 360,000 | AID 1224865 | P41235 | HNF4a-FITC DNA binding, fluorescence polarization, 1 h; in the data active = activity change above about 30%, passing the limit was not always enough;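 note: controls were the assay level and a saturating level of protein; the project sought stronger binding though the title names inhibitors; some compounds called inactive have numbers as strong as hits; positive values seem to mean higher polarization but the record does not say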
Target sequence (P41235 whole entry, looked up): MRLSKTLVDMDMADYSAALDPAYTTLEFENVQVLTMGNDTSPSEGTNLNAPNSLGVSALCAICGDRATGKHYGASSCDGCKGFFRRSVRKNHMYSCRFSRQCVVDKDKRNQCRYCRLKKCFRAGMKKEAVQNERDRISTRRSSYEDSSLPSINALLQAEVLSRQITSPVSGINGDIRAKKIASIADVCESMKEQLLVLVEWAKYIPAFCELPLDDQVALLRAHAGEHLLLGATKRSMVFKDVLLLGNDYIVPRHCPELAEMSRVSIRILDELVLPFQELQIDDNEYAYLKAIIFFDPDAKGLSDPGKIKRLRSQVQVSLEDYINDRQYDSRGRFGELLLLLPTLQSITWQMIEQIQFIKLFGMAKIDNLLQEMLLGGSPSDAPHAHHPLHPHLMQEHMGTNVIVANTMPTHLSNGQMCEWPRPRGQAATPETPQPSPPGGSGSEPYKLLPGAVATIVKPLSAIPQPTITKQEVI
Numbers without * were called inactive; i = inactive; ? = inconclusive; . = not tested or not shown; + = active, no number; & = joins results of further samples. The list is partial; count on the stated rates, not on these rows.

SMILES	AF4-AF9 inh	UCH37 DUB inh	FGF22 binding	Vif TR-FRET	RanGTP-Imp inh	E coli growth	HNF4A DNA FP
C/C=C(\C)C(=O)OC(C)(C)[C@H]1Cc2cc3ccc(=O)oc3cc2O1	-0.7	-225.8	i	-4.2%	-2.3	0.663	2.1
CCN(CC)C(=O)CC(c1cc(OC)c(OC)c(OC)c1)c1c(O)cc(OC)cc1OC (stereo not drawn)	-4.8	0.3	i	13.9%	?	0.66	2.4
CC(C)(C)C(=O)N1CCN(S(=O)(=O)c2ccc3c(c2)OCCCO3)CC1	-0.1	2.9	.	-1.8%	?	0.702	0.8
OC(CN1CCNCC1)Cn1c2ccccc2c2ccccc21 (stereo not drawn)	4.9	1.5	i	4.5%	?	0.647	7.5
CN(Cc1nc(Cc2ccccc2F)no1)Cc1cccc2ncccc12	0.1	4.7	i	.	-0.9	0.69	-0.9
COc1ccc(C(CNC(=O)c2ccc(S(=O)(=O)N3CC(C)CC(C)C3)cc2)N(C)C)cc1 (stereo not drawn)	9.1	5.9	i	-5.2%	.	0.674	-1.3
CC(=O)Nc1ccc(S(=O)(=O)Nc2cc(Cl)ccc2N2CCOCC2)cc1	-24.2	3.4	i	.	.	0.702	4.4
CCOCCCNC(=O)/C(C#N)=C/c1cc(OC)c(O)c([N+](=O)[O-])c1	-1.9	17.7	i	16.2%	0.8	0.677	-0.6
COC(=O)CNC(=O)COC(=O)/C=C/c1ccccc1[N+](=O)[O-]	-1.1	3.1	i	.	3.5	0.652	3.4
O=C(c1cccs1)N1CCC(c2nc3c(nnn3Cc3ccccc3Cl)c(=O)[nH]2)CC1	-0.8	5.0	i	1.1%	-2.6	0.708	2.1
CC1CN(S(=O)(=O)c2ccc(CN3C(=O)c4cccnc4C3=O)cc2)c2ccccc2O1 (stereo not drawn)	-1.4	0.5	i	.	0.5	0.598	-0.8
CCOC(=O)N1CCN(C(=O)c2ccccc2-c2ccccc2)CC1	.	4.3	.	-19.7%	-2.2	0.751	2.5
COc1ccc(NC(=O)NNC(=O)COc2ccc3ccccc3c2)cc1OC	-0.9	6.9	i	.	-0.4	0.676	0.5
CCOC(=O)C1CCN(S(=O)(=O)c2c(C)n[nH]c2C)CC1	.	-0.5	.	0.2%	1.2	0.749	-0.7
Fc1ccccc1NC(=S)Nn1cnnc1	-4.1	0.4	i	.	-0.7	0.695	-0.4
O=C(c1ccc([N+](=O)[O-])cc1)N1CCN(C(=O)C2CCCCC2)CC1	0.2	0.7	i	.	0.9	0.707	3.6
CCn1c(SCCC(C)C)nnc1-c1c[nH]c2ccccc12	-3.5	2.5	i	-5.1%	5.4	0.733	3.7
CC(C)(C)c1ccc(CN(Cc2ccco2)Cc2nnnn2C2CCCC2)cc1	.	0.1	.	1.1%	1.9	0.723	3.0
Cc1ccc(N(CC(N)=O)C2SC(=O)N(C)C2=O)cc1 (stereo not drawn)	.	1.0	.	31.4%	2.7	0.698	1.6
O=C(NCC1CCCO1)c1onc(CSc2ccccc2F)c1C(=O)O (stereo not drawn)	1.7	1.3	i	6.0%	1.9	0.685	-1.9
COc1cc(OC)cc(C(=O)NNC(=O)c2ccccn2)c1	-1.6	-0.8	i	.	-0.4	0.677	0.1
O=C(COC(=O)CCc1ccc(S(=O)(=O)N2CCOCC2)cc1)NC1CCCC1	1.1	4.8	i	.	5.2	0.748	-0.2
CC(CNS(=O)(=O)c1ccccc1)(c1ccccc1)N1CCCCC1 (stereo not drawn)	4.9	1.2	i	0.9%	0.8	0.668	1.5
Cc1ccccc1NC(=O)CNc1ccccc1C(=O)NCc1ccco1	.	-250.1	.	7.9%	1.5	0.723	2.6
C=C(C)CSc1nc(N)c2c(C)c(C)sc2n1	.	3.9	.	-4.4%	3.5	0.652	-5.4
COc1ccc([N+](=O)[O-])cc1CSc1ccccn1	3.7	1.0	i	8.5%	?	0.697	3.0
COc1ccc2cc3c(N)c(C(=O)N4CCCC4)sc3nc2c1	.	-4.1	.	?	-9.2	0.736	.
Nc1nonc1C(=O)NCCNS(=O)(=O)c1ccc(F)cc1	.	1.6	.	-5.7%	-4.4	0.725	3.5
O=C(CN1CCN(Cc2ccccc2F)C1=O)NCCc1ccc(Cl)cc1	-13.2	4.7	i	-3.4%	-1.2	0.714	1.9
Cn1c(C(=O)OCC(=O)NCc2ccco2)cc2sccc21	4.7	-2.7	i	?	?	0.702	0.6

As a short view, some entries already given.
SMILES	AF4-AF9 inh	UCH37 DUB inh	FGF22 binding	Vif TR-FRET	RanGTP-Imp inh	E coli growth	HNF4A DNA FP
C=C(C)CSc1nc(N)c2c(C)c(C)sc2n1	.	3.9	.	-4.4%	3.5	0.652	-5.4
COc1ccc([N+](=O)[O-])cc1CSc1ccccn1	3.7	1.0	i	8.5%	?	0.697	3.0
COc1ccc2cc3c(N)c(C(=O)N4CCCC4)sc3nc2c1	.	-4.1	.	?	-9.2	0.736	.

Continued:
SMILES	AF4-AF9 inh	UCH37 DUB inh	FGF22 binding	Vif TR-FRET	RanGTP-Imp inh	E coli growth	HNF4A DNA FP
COc1cc(CNC2CCCCCCC2)ccc1OCC(N)=O	-0.4	2.2	i	.	1.0	0.681	2.3
Cc1cccc(N2C(=O)CC(Sc3ncn[nH]3)C2=O)c1 (stereo not drawn)	-0.4	2.8	i	2.6%	0.8	0.693	1.2
COc1ccc(S(=O)(=O)NC2CC2)cc1C(=O)N1CCOCC1	-2.8	0.2	i	-2.3%	2.0	0.681	-0.2
CN(C)/C=C/C(=O)c1ccc(S(=O)(=O)c2ccccc2)cc1	-2.1	14.6	i	4.7%	5.9	0.62	-6.0
CC(C)C1COC(c2cccc3ccccc23)=N1 (stereo not drawn)	1.1	2.6	i	0.1%	-3.5	0.754	0.2
C[C@@H]1CN([C@@H](C)CO)C(=O)CCCn2nncc2CO[C@H]1CN(C)C(=O)c1ccncc1	-2.1&-8.3&-1.5	.	i	.	.	.	0.2
O=C(Nc1ccccc1N1CCOCC1)c1ccccc1[N+](=O)[O-]	.	2.2	.	1.2%	0.8	0.674	-1.4
CCc1ccc2[nH]cc(S(=O)(=O)c3ccc(C)c(C)c3)c(=O)c2c1	-4.5	-0.3	i	-8.7%	-1.5	0.665	2.5
O=C(c1cc(Cl)cc(Cl)c1)N1CCN(c2cc(C(F)(F)F)nc3ccccc23)CC1	-0.6	-3.0	i	-16.3%	0.2	0.622	3.7
COc1ccc(Cc2nnc(SCC(=O)NC3CCCCC3)n2C)cc1	2.1	1.3	i	-0.3%	1.7	0.672	0.7
O=C(c1cccc([N+](=O)[O-])c1)N1CCCC(C(=O)N2CCN(c3ccccc3)CC2)C1 (stereo not drawn)	1.6	2.3	i	.	.	0.692	-4.2
C[C@@H]1CN([C@@H](C)CO)C(=O)CCCn2nncc2CO[C@@H]1CN(C)S(=O)(=O)c1ccc2ccccc2c1	-1.3&-1.8	.	i	.	.	.	-3.3
O=C(Nc1ccccc1)Nc1ccc(C(=O)N2CCCC2)cc1	-1.1	-0.2	i	4.7%	5.5	0.666	-0.3
CCN(C(=O)COC(=O)c1ccc2c(c1)OCO2)c1ccccc1	-1.9	0.4	i	-11.5%	.	0.722	-0.6
C=C(C)c1cccc(C(C)(C)NC(=O)Nc2ncccn2)c1	.	0.9	.	22.0%	?	0.683	-0.9
COc1ccc(CCNC(=O)c2cc(-c3cc(C)ccc3O)n[nH]2)cc1OC	.	0.1	.	3.3%	-1.7	0.722	-3.7
O=[N+]([O-])c1ccc(NCCNS(=O)(=O)c2ccccc2)c(C(F)(F)F)c1	.	5.0	.	1.9%	-1.5	0.742	-0.4
O=C(C=C1CCN(c2ncc(C(F)(F)F)cc2Cl)CC1)NNC(=O)Nc1ccc(Cl)cc1	.	3.2	.	28.2%	-2.5	0.751	-4.7
COc1ccccc1C(=O)NNC1=C(C(=O)C(F)(F)F)CCC1	1.2	4.8	i	25.4%	0.6	0.683	-0.1
COc1ccc(CNC(=O)COc2cc3c(c4oc(=O)cc(C)c24)CCC(C)(C)O3)cc1	-2.4	-251.7	i	.	-1.5	0.734	2.8
CN(CC(=O)NC1CCCc2ccccc21)C1CCCCC1 (stereo not drawn)	0.4	3.6	i	0.4%	?	0.655	2.7
Cc1nnc(-c2ccc(Cl)cc2)nc1NCCN(C)C	-0.5	2.4	i	?	-2.4	0.668	-1.8
COc1ccc(-c2c(C)oc3c(CN4CCOCC4)c(O)ccc3c2=O)cc1	-3.3	-356.6	i	-0.1%	4.7	0.703	4.6
COc1ccc(Oc2ccccc2/C=N/O)cc1	.	.	.	?	2.2	.	1.2
CSc1cccc(NC(=O)c2cccc3cccnc23)c1	3.6	4.3	i	-3.6%	8.7	0.676	0.6
COc1cc(C2C(C#N)=C(C)NC3=C2C(=O)CC(C)(C)C3)cc(OC)c1O (stereo not drawn)	.	0.2	.	1.8%	5.6	0.69	1.1
CSc1ccc(CN(C)Cc2cc(=O)oc3c(C)c(C)ccc23)cc1	0.2	1.4	i	0.2%	-2.0	0.683	0.5
Cc1ccc(C(=O)N/N=C/c2ccc(-c3cccc(Cl)c3)o2)cn1	-2.6	.	i	-7.5%	3.5	.	-1.1
CCCN1C(=O)SC(CC(=O)Nc2ccccc2)C1=O (stereo not drawn)	.	1.8	.	7.5%	2.0	0.691	1.5
Cc1ccc2ncc(S(=O)(=O)c3ccccc3)c(N3CCCCC3C)c2c1 (stereo not drawn)	2.7	6.7	i	.	5.8	0.731	0.2
COc1ccccc1OCC(=O)Nn1c(=S)[nH]c2ncccc2c1=O	-0.4	6.1	i	26.8%	0.3	0.662	0.4
Cc1cc(NCc2ccccn2)n2c(nc3ccccc32)c1C#N	-10.0	-207.7	i	.	96.5*	0.686	-1.6
Cc1ccc(C)c(-n2ccnc2SCC(=O)O)c1	.	3.4	.	5.8%	1.1	0.709	0.2
COc1ccc(N2CC(C(=O)Nc3cc(C)on3)CC2=O)cc1 (stereo not drawn)	-1.1	-1.7	i	-0.1%	1.2	0.721	-0.9
Cc1ccccc1S(=O)(=O)N1[C@@H](c2ccc(F)cc2)C(C(=O)O)=CC[C@H]1c1ccc(Cl)cc1	8.3	1.2	+	.	.	.	-0.5
Oc1nc(Nc2ccc(F)cc2)sc1/C=C1\C=Nc2ccccc21	4.1	.	i	?	19.3*	.	6.0
CCOC(=O)c1cnc2c(-c3ccc(Cl)cc3)cnn2c1C	-2.7	3.9	i	.	2.6	0.731	-3.8
O=C(c1ccc(NC2=NC3CS(=O)(=O)CC3S2)cc1)N1CCN(c2ccc(F)cc2)CC1 (stereo not drawn)	0.6	3.0	i	.	5.5	0.797	3.3
COc1cn(-c2ccccc2)nc1C(=O)Nc1ccc(C)cc1Cl	-0.5	-17.7	i	-13.0%	2.2	0.682	2.9
NC(=O)COC(=O)c1ccc(-c2ccccc2)cc1	-3.8	-1.8	i	-9.6%	3.7	0.668	-2.9
O=C(O)Cc1c(O)ccc2ccccc12	.	-19.6	.	3.0%	-6.2	0.73	0.1
O=C(Nc1nc(-c2ccccc2)cs1)c1ccccc1F	-0.5	2.6	i	.	-2.9	0.683	1.1
COc1ccc(/C=N/NC(=O)c2ccoc2C)cc1CN1CCN(c2ccc(F)cc2)CC1	19.1	.	i	-6.4%	-0.2	.	0.7
CC(=O)Nc1nc(N(C)C)nc(N(C)C)n1	0.9	2.0	i	16.3%	3.9	0.706	-0.3
COc1ccc(S(=O)(=O)N2CCN(C)CC2c2ccccc2)cc1 (stereo not drawn)	1.6	2.7	i	-4.4%	.	0.647	0.9

Compound activity from PubChem.
